High-throughput results (PubChem BioAssay)
DUX4 inh – DUX4-mediated transcription inhibition | 293T-iDUX4 ZSCAN4-Gaussia luciferase reporter, 24 h; active compounds read low | activity change, negative = inhibition, % (concentration not given with the values) | 0.8% of 37,000 active | AID 1224904;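 active = -10% or lower and over 25 points stronger than a control reporter; inconclusive = -10% or lower with a smaller gap; inactive = above -10%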;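 also: 0% = median of neutral control wells and -100% = median of positive control wells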
DUX4 inh difference – recorded beside DUX4 inh, whose call it bears; Gaussia minus Italica difference, %; measured here: selective DUX4 reporter inhibition;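 worked out from the two reporters; negative = selective loss of the DUX4 reporter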
DUX4 inh control – recorded beside DUX4 inh, whose call it bears; activity change, negative = inhibition, %; measured here: Italica tet-on control reporter;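 0 = neutral control and -100 = positive control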
Starred values were filed as active, the others as inactive; ? = inconclusive; . = not tested or not shown. This is a subset; the hit share may differ from the screen's.

DUX4 inh	DUX4 inh difference	DUX4 inh control	canonical_smiles
-2	-4	1.8	CC(C)NC(=O)N(C)C[C@@H]1Oc2ccc(NC(=O)Nc3ccc4c(c3)OCO4)cc2CC(=O)N([C@H](C)CO)C[C@H]1C
-2	-6	3.7	O=C(NCCCN1CCOCC1)[C@@H]1[C@@H](CO)[C@@H]2Cn3c(cccc3=O)[C@H]1N2C(=O)C1CCCC1
15	0	15	CCC(=O)N1CC2(CCN(S(C)(=O)=O)CC2)c2c(n(C)c3cc(OC)ccc23)[C@H]1CO
10	16	-5.7	C[C@H](CO)N1C[C@H](C)[C@H](CN(C)C(=O)Nc2cccc(Oc3ccccn3)c2)OCc2cn(nn2)CCCC1=O
-1	1	-2.3	CCCNC(=O)N1[C@H](C#N)[C@H](c2ccccc2-c2ccccc2F)[C@@H]1CO
-2	-1	-1.3	O=C(C[C@H]1C[C@@H]2c3cc(NC(=O)CC4CC4)ccc3O[C@@H]2[C@@H](CO)O1)NCc1cc(F)ccc1F
-2	7	-9.2	N#Cc1ccc(-c2ccc3c(c2)[C@@H]2[C@@H](CCN2C(=O)Cc2ccncc2)[C@@H](CO)N3)cc1
?	.	.	OC[C@H]1[C@@H](c2ccc(C#Cc3ccccc3F)cc2)[C@@H]2CN(CC3CCOCC3)CCCCN12
1	-3	3.6	CCCC(=O)Nc1ccc2c(c1)C(=O)N(C)[C@@H]1CC[C@H](CC(=O)N3CCCCC3)O[C@@H]1CO2
6	7	-1.7	CNC[C@@H]1Oc2ccc(NC(=O)Nc3ccc(F)cc3)cc2C(=O)N([C@@H](C)CO)C[C@@H]1C
-4	-2	-2.8	C[C@@H]1CN([C@H](C)CO)C(=O)c2cc(NS(=O)(=O)c3cccs3)ccc2O[C@@H](C)CCCCO[C@@H]1CN(C)C(=O)c1ccncc1
3	3	-0.8	CN1C(=O)c2cc(NC(=O)C3CCOCC3)ccc2OC[C@H]2O[C@H](CC(=O)NCc3ccc4c(c3)OCO4)CC[C@H]21
?	.	.	COc1ccc2c3c([nH]c2c1)[C@H](CO)N(Cc1cc(F)ccc1F)CC31CN(C(C)=O)C1
?	.	.	O=C(c1cccnc1)N1CC(=O)N2[C@H](CO)[C@@H](c3ccc(C#CCC4CCCC4)cc3)[C@@H]2C1
-2	1	-2.7	O=C(NC[C@@H]1N[C@@H](CO)[C@H]1c1ccccc1)c1ccccc1F
?	.	.	COc1cccc(C#Cc2ccc([C@@H]3[C@H]4CN(C(=O)c5ccccc5)CC(=O)N4[C@H]3CO)cc2)c1
5	3	1.8	Cc1noc(C)c1NC(=O)N(C)C[C@H]1OCc2ccccc2-c2c(n(C)c3ccccc23)C(=O)N([C@H](C)CO)C[C@H]1C
?	.	.	COc1ccccc1C#Cc1ccc([C@@H]2[C@@H](CO)N3CCCCN(C(=O)C4CCC4)C[C@H]23)cc1
8	0	7.9	Cc1noc(C)c1NC(=O)N1C[C@H](O)COC[C@H]2O[C@@H](CC(=O)N[C@@H]3CCN(Cc4ccccc4)C3)CC[C@@H]21
13	9	3.9	CC=Cc1ccc2n(c1=O)C[C@@H]1[C@@H](CO)[C@H](C(=O)NC3CCCC3)N(C(=O)C3CC3)[C@H]21 (mixture of isomers)
0	0	-0.2	CCCN1[C@@H]2c3cccc(=O)n3C[C@H]1[C@H](CO)[C@H]2C(=O)N1CCCCC1
?	.	.	CN1c2ccc(C#Cc3cccnc3)cc2[C@@H]2[C@@H](CCN2S(=O)(=O)c2cccc(F)c2)[C@H]1CO
0	3	-2.5	O=C(C[C@H]1C[C@@H]2c3cc(NS(=O)(=O)c4ccc(F)cc4)ccc3O[C@@H]2[C@@H](CO)O1)NCc1cccc(F)c1
-8	-4	-3.9	COc1cccc(CN2CC3(CN(CC4CCOCC4)C3)c3c([nH]c4cc(OC)ccc34)[C@@H]2CO)c1
4	7	-3.5	CCC(=O)N1CCCCN2[C@H](C1)[C@@H](c1ccc(-c3cccc(C#N)c3)cc1)[C@@H]2CO
-3	-1	-2.2	O=C(c1ccccc1F)N1C[C@H]2[C@@H](c3ccccc31)[C@@H](CO)N2CC1CCCCC1
2	-1	3.1	CC=Cc1ccc2n(c1=O)C[C@H]1[C@H](CO)[C@@H](C(=O)NCC3CC3)N(C(C)=O)[C@@H]21 (mixture of isomers)
11	7	3.2	COc1ccccc1CNC(=O)C[C@H]1C[C@@H]2c3cc(NS(C)(=O)=O)ccc3O[C@@H]2[C@@H](CO)O1
-9	-12	3.1	O=C(Nc1cc(F)ccc1F)N[C@@H]1CC[C@H](CC(=O)N2CCc3ccccc3C2)O[C@@H]1CO
-7	-1	-6.3	O=C(NC1CCCC1)N1CC2(C1)[C@H](c1ccccc1)[C@@H](CO)N2S(=O)(=O)Cc1ccccc1
4	2	1.3	O=C(C[C@H]1C[C@H]2c3cc(NC(=O)Nc4ccccc4F)ccc3O[C@H]2[C@H](CO)O1)NCc1ccncc1
?	.	.	O=C(C[C@H]1CC[C@H]2[C@@H](COC[C@@H](O)CN2Cc2ccc(Oc3ccccc3)cc2)O1)N1CCCCC1
-1	-1	0.0	O=C(NC[C@H]1[C@H](c2ccccc2)[C@H](CO)N1C(=O)Cc1cccnc1)C1CC1
6	1	4.9	C[C@@H]1CN([C@H](C)CO)C(=O)c2ccccc2-c2ccccc2CO[C@H]1CN(C)C(=O)C1CC1
-3	-3	0.2	O=C(NCC[C@@H]1CC[C@@H](NC(=O)c2ccccc2F)[C@@H](CO)O1)c1cnccn1
0	5	-4.9	CCC(=O)N1[C@@H]2c3ccc(-c4ccncc4)c(=O)n3C[C@H]1[C@H](CO)[C@H]2C(=O)N1CCc2ccccc2C1
-5	1	-6.4	CO[C@H]1CC[C@H]2CCOc3ccc(C#N)cc3C(=O)N(C)CCCC(=O)N(C)C[C@H]1O2
?	.	.	CN(C)C(=O)c1cccc(-c2ccc3c(c2)[C@@H]2[C@@H](CCN2C(=O)c2ccc4c(c2)OCO4)[C@@H](CO)N3)c1
15	14	0.9	CCCNC(=O)N1CC2(C1)[C@@H](c1ccccc1)[C@@H](CO)N2CC1CCOCC1
-1	4	-5.0	COc1ccc(S(=O)(=O)N(C)C[C@@H]2Oc3c(NC(=O)c4nc5ccccc5s4)cccc3C(=O)N([C@@H](C)CO)C[C@@H]2C)cc1
0	2	-1.5	COC(=O)C[C@@H]1CC[C@@H]2[C@H](COc3ccc(NC(=O)Nc4cccc(F)c4)cc3C(=O)N2C)O1
6	15	-9.4	CN(C)C(=O)c1ccc(-c2ccc3c(c2)[C@@H]2[C@@H](CCN2Cc2ccc4c(c2)OCO4)[C@H](CO)N3)cc1
-3	0	-3.0	Cc1noc(C)c1NC(=O)Nc1ccc2c(c1)CC(=O)N([C@@H](C)CO)C[C@H](C)[C@H](CN(C)Cc1ccc(C(F)(F)F)cc1)O2
24	25	-1.2	CC(C)(O)C#Cc1ccc([C@@H]2[C@H]3CN(C(=O)c4ccncc4)CCCCN3[C@H]2CO)cc1
?	.	.	O=C(Nc1ccc(Cl)c(Cl)c1)N[C@@H]1CC[C@H](CCNC(=O)c2ccc(F)cc2)O[C@@H]1CO
?	.	.	OC[C@H]1[C@@H](c2ccc(C#Cc3ccccc3)cc2)[C@@H]2CN(CC3CCOCC3)CCCCN12
6	0	5.9	CN1CCN(C(=O)C[C@H]2CC[C@@H]3[C@H](COC[C@H](O)CN3C(=O)Nc3ccc(Cl)cc3)O2)CC1
?	.	.	COc1ccc2c3c([nH]c2c1)[C@@H](CO)N(Cc1ccc(Cl)cc1)CC31CCN(Cc2ccccc2)CC1
15	7	8.1	C/C=C/c1ccc([C@H]2[C@@H](CO)N3CCCCN(C(=O)Nc4ccc(F)cc4)C[C@@H]23)cc1
0	3	-2.5	C[C@@H]1CN([C@@H](C)CO)C(=O)c2cc(NS(=O)(=O)c3cccs3)ccc2O[C@@H](C)CCCCO[C@H]1CN(C)C(=O)CCC(F)(F)F
?	.	.	COc1cc(CN2C[C@@H]3N[C@H](C2)C3c2ccc(-c3ccncc3)cc2)cc(OC)c1 (stereo partly specified)
-2	-1	-0.8	CCCN1[C@@H]2Cn3c(ccc(/C=C/c4ccccc4)c3=O)[C@H]1[C@@H](C(=O)NCC)[C@@H]2CO
-4	-1	-3.4	CCCN1[C@@H]2c3ccc(/C=C/c4ccccc4)c(=O)n3C[C@@H]2[C@@H](CO)[C@@H]1C(=O)N1CCOCC1
-1	-3	2.2	CNC[C@@H]1Oc2c(NS(=O)(=O)c3ccc(Cl)cc3)cccc2C(=O)N([C@H](C)CO)C[C@@H]1C
6	1	5.1	O=C1CN(S(=O)(=O)c2ccccc2)C[C@@H]2[C@H](c3ccc(C#CCc4ccccc4)cc3)[C@@H](CO)N12
-2	1	-2.4	C[C@@H]1CN([C@H](C)CO)C(=O)CCCn2cc(nn2)CO[C@@H]1CN(C)Cc1ccc(C(=O)O)cc1
6	1	4.7	CN(C)CC(=O)N1[C@H](CO)[C@@H](c2ccc(C#CC3CC3)cc2)[C@@H]1C#N
0	2	-1.4	C[C@@H]1CN([C@H](C)CO)C(=O)CCCn2cc(nn2)CO[C@@H]1CN(C)C(=O)C1CC1
2	-1	2.2	CC(C)NC(=O)Nc1ccc2c(c1)CC(=O)N([C@@H](C)CO)C[C@H](C)[C@H](CN(C)Cc1ccncc1)O2
5	1	4.1	O=C(C[C@@H]1C[C@@H]2c3cc(NC(=O)c4cccnc4)ccc3O[C@@H]2[C@@H](CO)O1)NCc1cccc(F)c1

Some of these compounds in order of length of the SMILES, falling:
DUX4 inh	DUX4 inh difference	DUX4 inh control	canonical_smiles
0	3	-2.5	C[C@@H]1CN([C@@H](C)CO)C(=O)c2cc(NS(=O)(=O)c3cccs3)ccc2O[C@@H](C)CCCCO[C@H]1CN(C)C(=O)CCC(F)(F)F
-4	-1	-3.4	CCCN1[C@@H]2c3ccc(/C=C/c4ccccc4)c(=O)n3C[C@@H]2[C@@H](CO)[C@@H]1C(=O)N1CCOCC1
?	.	.	COc1ccc2c3c([nH]c2c1)[C@@H](CO)N(Cc1ccc(Cl)cc1)CC31CCN(Cc2ccccc2)CC1

(cont.)
DUX4 inh	DUX4 inh difference	DUX4 inh control	canonical_smiles
0	2	-2.4	C[C@H]1CN([C@@H](C)CO)S(=O)(=O)c2ccc(Br)cc2O[C@@H]1CN(C)C(=O)Cc1ccccc1
-6	-4	-2.2	CCS(=O)(=O)N1[C@H](CO)[C@@H](c2ccccc2C2=CCCCC2)[C@@H]1C#N
?	.	.	O=C(Nc1cccc(F)c1)N1CC(=O)N2[C@H](CO)[C@H](c3ccc(C#CCC4CCCC4)cc3)[C@@H]2C1
?	.	.	COc1ccc2c3c(n(C)c2c1)[C@@H](CO)N(Cc1ccc(F)cc1)CC31CCN(C)CC1
-4	-4	0.6	O=C(C[C@H]1C[C@H]2c3cc(NC(=O)Nc4ccc(C(F)(F)F)cc4)ccc3O[C@H]2[C@@H](CO)O1)NCc1ccc(Cl)cc1
0	-1	0.7	CCNC(=O)Nc1ccc2c(c1)C(=O)N(C)[C@H]1CC[C@@H](CC(=O)NC3CCCCC3)O[C@H]1CO2
-5	-2	-2.9	COc1ccccc1CNC(=O)C[C@@H]1C[C@H]2c3cc(NC(=O)c4cccnc4)ccc3O[C@H]2[C@H](CO)O1
9	3	6.2	COC(=O)C[C@@H]1CC[C@H]2[C@H](COc3ccc(NC(=O)c4cccc(F)c4)cc3C(=O)N2C)O1
2	0	1.8	CO[C@H]1CN(C)C(=O)c2cc(NC(=O)Cc3ccccc3)ccc2OC[C@@H](C)NC[C@@H]1C
-1	1	-1.4	CCNC(=O)C[C@H]1CC[C@H]2[C@@H](COC[C@@H](O)CN2C(=O)c2ccccn2)O1
-1	-3	1.8	CN(C)C(=O)C[C@@H]1CC[C@@H]2[C@@H](COc3ccc(NC(=O)Nc4cccc(Cl)c4)cc3C(=O)N2C)O1
-7	-2	-5.4	COc1ccccc1NC(=O)N[C@H]1C=C[C@H](CC(=O)NCc2ccc(Cl)c(Cl)c2)O[C@H]1CO
5	4	1.5	CCNC(=O)C[C@@H]1CC[C@H]2[C@H](COc3ccc(NC(=O)Nc4ccccc4Cl)cc3C(=O)N2C)O1
?	.	.	CCCN1C[C@H](C)[C@@H](OC)CN(C)C(=O)c2ccc(NC(=O)c3ccc(F)cc3)cc2OC[C@@H]1C
-1	2	-3.8	C[C@@H]1CN([C@H](C)CO)C(=O)c2c(c3ccccc3n2C)-c2ccccc2CO[C@H]1CN(C)C(=O)[C@H](C)c1ccccc1

Entries from the list above containing an NH in an aromatic ring:
DUX4 inh	DUX4 inh difference	DUX4 inh control	canonical_smiles
?	.	.	COc1ccc2c3c([nH]c2c1)[C@H](CO)N(Cc1cc(F)ccc1F)CC31CN(C(C)=O)C1
-8	-4	-3.9	COc1cccc(CN2CC3(CN(CC4CCOCC4)C3)c3c([nH]c4cc(OC)ccc34)[C@@H]2CO)c1
?	.	.	COc1ccc2c3c([nH]c2c1)[C@@H](CO)N(Cc1ccc(Cl)cc1)CC31CCN(Cc2ccccc2)CC1

(continued)
DUX4 inh	DUX4 inh difference	DUX4 inh control	canonical_smiles
3	4	-1.0	O=C(C[C@H]1C=C[C@H](NC(=O)C2CCOCC2)[C@H](CO)O1)NCCc1cscn1
6	6	0.7	O=C(Nc1cc(F)ccc1F)N1C[C@H]2[C@@H](c3ccccc31)[C@H](CO)N2Cc1cccnc1
?	.	.	O=C(CC1CC1)N1CC(=O)N2[C@H](C1)[C@@H](c1ccc(C#Cc3ccc(F)cc3)cc1)[C@@H]2CO
8	3	4.8	O=C(C1CCOCC1)N1CC(=O)N2[C@H](CO)[C@@H](c3ccc(C4=CCCC4)cc3)[C@H]2C1
?	.	.	COc1ccc(C#Cc2ccc([C@@H]3[C@@H](CO)N4CCCCN(C(=O)Nc5cccc(F)c5)C[C@@H]34)cc2)cc1
4	6	-2.5	COc1cccc(CN(C)C[C@@H]2OCc3cnnn3CCCC(=O)N([C@H](C)CO)C[C@H]2C)c1
6	4	2.7	C[C@@H](NC(=O)C[C@H]1C[C@H]2c3cc(NS(C)(=O)=O)ccc3O[C@H]2[C@@H](CO)O1)c1ccccc1
